CBX7 AlphaScr: CBX7 chromodomain binding inhibitors, primary screen, biochemical, AlphaScreen; 66,000 compounds, 1.1% hits; AlphaScreen His6-CBX7 / biotin-H3K27me3 peptide binding; hits give low values; AID 1224903, 2016; Chromobox protein homolog 7 (Homo sapiens), O95931; normalised signal (fraction of DMSO) (no concentration beside the values); in the data active = normalised signal below about 0.5;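 note: 100 nL library stock added to about 20 µL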
Target sequence (O95931 whole entry, looked up): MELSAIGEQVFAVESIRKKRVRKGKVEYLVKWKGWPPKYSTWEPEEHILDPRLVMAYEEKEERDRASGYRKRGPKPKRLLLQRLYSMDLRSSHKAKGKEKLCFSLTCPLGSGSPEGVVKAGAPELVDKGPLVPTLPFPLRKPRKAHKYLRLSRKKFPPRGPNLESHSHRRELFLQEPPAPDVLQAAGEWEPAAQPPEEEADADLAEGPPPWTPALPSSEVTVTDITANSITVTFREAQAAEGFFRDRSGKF
CBX7 AlphaScr z-score: recorded beside CBX7 AlphaScr, whose call it bears; z-score; measured here: z-score of CBX7 signal; some inactives read as strong as hits; reference of the scale not given here;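 same signal on another scale; lower means less binding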
An asterisk follows results filed as active.

Values run as follows: CBX7 AlphaScr	CBX7 AlphaScr z-score
> Cc1ccc(-c2ccc(=O)n(CC(=O)NCCCN3CCCCC3)n2)cc1
  1	2
> Cc1onc(-c2ccccc2Cl)c1C(=O)N1CCCCC1C(=O)O (configuration not stated)
  1	1.7
> COc1ccc(C(=O)c2oc3ccccc3c2NC(=O)c2ccc(OC)c(OC)c2)cc1
  1.3	5.3
> Cc1c(Cl)cccc1NS(=O)(=O)c1ccc2[nH]cc(C(=O)NCC3CCCO3)c(=O)c2c1 (configuration not stated)
  1	0.0085
> COc1cccc(-c2nn(C)c3sc(C(=O)NCCCN4CCCCCC4)cc23)c1
  0.96	-1
> COc1ccccc1Nc1nnc(Cc2cccnc2)c2ccccc12
  0.99	-0.26
> CCN(CCCNC(=O)C1CCC(=O)N1Cc1ccc(C)cc1)c1cccc(C)c1 (configuration not stated)
  0.9	-5
> O=C(NCc1ccccc1F)C1CCN(C(=O)c2sccc2-n2cccc2)CC1
  0.99	-0.6
> CCC(=O)Nc1cc(-c2nc3ncccc3o2)ccc1C
  1	0.24
> COc1cccc(-c2nc(SCC(=O)Nc3ccc4c(c3)OCCO4)c(-c3ccc(C)cc3)[nH]2)c1
  0.8	-9.3
> Cc1ccc(Nc2cc(C(=O)NCCC(C)C)c3ccccc3n2)cc1C
  1.1	1.3
> CCOc1ccc(-n2c(Cc3cc(=O)[nH]c(=O)[nH]3)nnc2SCC(=O)Nc2cccc(F)c2)cc1
  0.84	-2.4
> CCc1ccc(Nc2cc(C(=O)NCc3ccccn3)c3ccccc3n2)cc1
  1	0.16
> COCCCNC(=O)c1ccc2c(c1)N(Cc1ccccc1C)C(=O)c1ccccc1S2
  0.96	-1.1
> O=c1[nH]c(-c2ccc(Br)cc2)cn1-c1cccc(Cl)c1
  1	0.53
> Cc1cccc(C)c1NC(=O)Cn1c(SCC(N)=O)nc2ccccc21
  1.1	0.92
> CCCn1c(C2CC(=O)N(c3ccc(Br)cc3)C2)nc2ccccc21 (configuration not stated)
  0.95	-0.33
> Cc1ccc(CSc2nc3ccncc3n2Cc2ccc(Cl)cc2)cc1
  0.95	-1.2
> CC(CCc1ccccc1)NC(=O)c1nnc(Cc2ccc(Cl)cc2)o1 (configuration not stated)
  1.1	3.3
> CC(O)(c1ccc(F)cc1)C(CN1CCOCC1)c1ccccc1 (configuration not stated)
  0.8	-4.2
> COc1ccc(C)cc1NC(=O)C1CCN(S(=O)(=O)c2cccnc2)CC1
  0.98	-0.56
> COc1ccc(-c2nn(-c3ccccc3)cc2C(=O)O)cc1
  1	-0.032
> Cc1cc(C)c(C#N)c(SCC(=O)Nc2nsc(-c3ccc(Cl)cc3)n2)n1
  1.1	1.3
> COc1ccccc1CNC(=O)C1CCN(c2nc3ccccc3n2Cc2ccc(F)cc2)CC1
  0.92	-2.2
> Cc1cc(C)cc(NC(=O)Cn2c(SCc3cc(C)ccc3C)nc3ccncc32)c1
  1	0.84
> COc1cc2c(C(=O)Nc3cccc(C)n3)cn(CC(C)C)c(=O)c2cc1OC
  0.98	-0.55
> O=C(Nc1nc(-c2cccs2)cs1)c1ccc(Cc2ccccc2)cc1
  0.88	-2.3
> O=C(NCCc1ccc(Cl)cc1)C1CCC(Cn2c(=O)[nH]c3ccsc3c2=O)CC1 (configuration not stated)
  0.95	-0.24
> COc1ccc(-c2noc(CCC(=O)Nc3cccc(C(F)(F)F)c3)n2)cc1
  1	0.6
> CCCN1CCN(C(=O)C2CCN(C(=O)c3cc4sccc4n3C)CC2)CC1
  0.97	-0.59
> Cc1ccc(Cn2c(C(=O)O)cc3oc(C)cc32)cc1
  1.1	0.72
> COc1ccc(OC)c2c(N3CCN(C)CC3)cc(C(F)(F)F)nc12
  1.2	2.2
> O=C(CN1C(=O)COc2ccccc21)NCCN1CCCC1
  0.96	-1.3
> Fc1ccc(OCCn2c(COc3ccccc3)nc3ccccc32)cc1
  1	1.7
> Cc1ccc(-c2noc(CN(C(=O)COc3ccccc3)C(C)C)n2)cc1
  0.95	-0.46
> CCOC(=O)c1cc(-c2ccccc2)n(CCC(=O)N(C)C2CCCCC2)c1C
  0.82	-5.4
> CC(NC(=O)C(=O)NCc1cccnc1)C(c1cccs1)N1CCN(c2ccccc2F)CC1 (configuration not stated)
  0.93	-0.7
> COc1cccc(C2C(N3C(=O)c4ccccc4C3=O)C(=O)N2c2ccc(Cl)cc2C)c1 (configuration not stated)
  0.9	-2.2
> CCOC(CNC(=O)c1ccc2c(c1)nc(C)n2-c1ccc(OC)cc1)OCC
  1.1	2.4
> CCc1ccc2oc(-c3cccc(NC(=O)c4ccc(F)cc4)c3)nc2c1
  1	0.59
> COc1ccc(Cl)cc1NC(=O)CCCOc1cc(=O)n(C)c2ccccc12
  1.1	0.89
> COc1cc(NC(=O)c2cc(-c3ccc(Cl)cc3)on2)c(OC)cc1Cl
  1	1.1
> COCCCNC(=O)CSc1nc(-c2ccc(Br)cc2)[nH]c1-c1ccccc1
  0.94	-0.97
> COC(=O)c1cc2c(s1)CN(Cc1ccc(F)cc1)C2
  0.92	-3.3
> CCN(C(=O)CCc1nc(-c2ccc(OC)cc2)no1)c1ccc(F)cc1
  1.1	0.064
> Cc1noc(/C=C/c2cccs2)c1S(=O)(=O)N1CCCC(C(=O)Nc2nccs2)C1 (configuration not stated)
  0.94	-1
> CCC(C)NC(=O)CC1C(=O)N(Cc2ccccc2)C(C)c2nc3ccccc3n21 (configuration not stated)
  1	0.16
> COc1ccc(Br)cc1C(=O)Nc1cccc(-c2nc3ccccc3o2)c1
  1.2	3
> Cc1ccc(CNC(=O)c2cnn3c(C)c4c(nc23)CCCC4)cc1
  1	0.36
> Cc1ccc(NC(=O)Cn2cnc3sc(C)c(C)c3c2=O)c(Br)c1
  1.1	1.8
> CN1CCc2c(n(CC(O)CNCc3ccccc3)c3ccccc23)C1=O (configuration not stated)
  1	-0.075
> c1ccc2sc(SCc3cn4ccsc4n3)nc2c1
  0.98	-0.66
> COc1ccc(-c2nn(C)c3sc(C(=O)Nc4ccc(F)c(Cl)c4)cc23)cc1OC
  1.2	6.3
> COc1ccc(-c2nc(-c3ccc(NC(=O)c4cccs4)cc3)no2)cc1OC
  1	0.3
> O=C(C1CC(=O)N(c2ccc(F)c(Cl)c2)C1)N1CCN(c2ccc(F)cc2)CC1 (configuration not stated)
  0.98	-1
> CC(CCc1ccccc1)NC(=O)CC(C(=O)N1CCc2ccccc21)n1ccnc1 (configuration not stated)
  1	0.39
> COc1ccc(-c2cc(C(=O)NCCN3CCOCC3)no2)cc1OC
  0.98	-0.17
> CCC(C(=O)NCCCOC)n1ncc2ccccc21 (configuration not stated)
  0.99	-0.2
> CCOC(=O)c1ccc(NC(=O)c2cc3c(n(-c4ccc(Cl)cc4)c2=O)CC(C)(C)CC3=O)cc1
  0.99	-0.083
> Cc1cc(C)n(-c2nn3c(C(F)(F)C(F)(F)C(F)(F)F)nnc3c3ccccc23)n1
  1	0.061

Additional results follow.
Values run as follows: CBX7 AlphaScr	CBX7 AlphaScr z-score
> O=C(NCC1(c2ccccc2)CCCC1)c1ccc2c(=O)n3c(nc2c1)CCCCC3
  0.81	-3
> Cc1ccc(-c2nnc(Sc3cc(C(C)(C)C)c(O)c(C(C)(C)C)c3)c3ccccc23)cc1
  0.84	-3.5
> Cc1cc(Nc2ccc3c(c2)OCCO3)c2cccc(C)c2n1
  0.93	-0.77
> CCn1c(-c2ccc(OC)cc2)nc2ccccc21
  1	0.72
> CCOc1ccccc1C(=O)Nc1cccc(C)c1C
  1.1	0.21
> CCCCOc1ccc(C(=O)Nc2c(C(=O)c3ccc(Cl)cc3)oc3ccccc23)cc1
  1	0.13
> Cc1ccc(CNC(=O)c2nc(-c3ccc(Cl)cc3)oc2C)cc1
  1	0.12
> CCOC(=O)c1nnn(-c2nonc2-n2cccc2)c1C
  1	0.27
> O=C(Nc1ccc(Br)cc1)C1CCN(S(=O)(=O)c2cnc[nH]2)CC1
  0.98	-0.28
> COc1ccc(CNC(=O)C2CCN(S(=O)(=O)c3ccc4c(c3)CCC(=O)N4)CC2)cc1
  1	0.1
> COc1ccc(N2CCN(C(c3cccs3)C(C)NC(=O)c3cccc(F)c3)CC2)cc1 (configuration not stated)
  0.92	-2
> O=C(c1cc(-c2ccc3c(c2)OCO3)on1)N1CCN(C(c2ccccc2)c2ccccc2)CC1
  0.92	-1.1
> Cc1ccc(CNC(=O)CN2C(=O)COc3ccc(S(=O)(=O)N4CCCC4)cc32)cc1
  0.99	-0.26
> Cc1ccccc1CNC(=O)c1cnn(-c2ccccc2)c1-n1cccc1
  1	0.35
> Cc1cc(N2CCCCC2)nc2ccc(NC(=O)c3ccccc3Cl)cc12
  0.97	-0.16

Later entries:
Structure	CBX7 AlphaScr	CBX7 AlphaScr z-score
COc1ccc2[nH]c(C)c(CCNS(=O)(=O)c3cc(Cl)ccc3Cl)c2c1	0.72	-0.56
Cc1cccc(Cn2c(=O)n(CCC(=O)NCc3ccccc3)c(=O)c3sccc32)c1	0.98	-0.43
NC(=O)C1(N2CCCCC2)CCN(Cc2nc3ccccc3c(=O)[nH]2)CC1	0.86	-1.7
Cn1c2ccccc2c2c(C(=O)NC3CCCCCC3)cn(C3CCCC3)c(=O)c21	0.97	-0.78
Cc1ccc(NS(=O)(=O)c2ccc3c(c2)CCN3C(=O)C2CC2)cc1F	1.1	1.5
CCOC(=O)c1[nH]c2ccc(OCC)cc2c1CCCN1C(=O)c2ccccc2C1=O	1	0.23
NS(=O)(=O)c1ccc(NC(=O)CSc2nc3ccccc3s2)cc1	1.1	1.4
COc1ccccc1CNC(=O)Cn1cnc2c1c(=O)n(C)c(=O)n2C	0.96	-0.38
CC(C(=O)O)C1Sc2ccccc2N(Cc2ccccc2Cl)C1=O (configuration not stated)	1	0.17
Cc1ccc(CCNC(=O)c2ccc3c(c2)NC(=O)C2CCCN32)cc1 (configuration not stated)	0.99	-0.058
O=C(NCCc1ccccc1Cl)c1ccc(NC2=NC3CS(=O)(=O)CC3S2)cc1 (configuration not stated)	0.65	-2.6
COc1cccc(NC(=O)CCNS(=O)(=O)c2ccc3c(c2)CCN3C(C)=O)c1	1	0.19
COc1cc(OC)cc(-c2cc3nc(C)c(CCC(=O)Nc4cccnc4)c(C)n3n2)c1	0.99	-0.3
COC(=O)c1c(NC(=O)c2ccc(OC)c(Br)c2)sc2c1CCCC2	1.2	2.2
COC(CNC(=O)c1cc(Nc2cccc(SC)c2)nc2ccccc12)OC	1.2	5

Two records picked at random from those above:
Structure	CBX7 AlphaScr	CBX7 AlphaScr z-score
COc1cccc(C2C(N3C(=O)c4ccccc4C3=O)C(=O)N2c2ccc(Cl)cc2C)c1 (configuration not stated)	0.9	-2.2
COc1cc(OC)cc(-c2cc3nc(C)c(CCC(=O)Nc4cccnc4)c(C)n3n2)c1	0.99	-0.3

(listing goes on)
Structure	CBX7 AlphaScr	CBX7 AlphaScr z-score
Cc1cc2cc(CNC(=O)c3ccc(S(=O)(=O)N(C)C)cc3)ccc2n1C	0.82	-3
Cc1ccccc1NC(=O)c1cc2sccc2n1Cc1ccc(F)cc1	0.99	-0.14
Cc1ccc(CN2C(=O)C(O)(CC(=O)c3ccncc3)c3ccccc32)cc1 (configuration not stated)	0.59	-0.46
CC(=O)Nc1nonc1-c1nc2ccccc2n1CCC(C)C	0.98	-0.34
COc1ccc(-n2c(Cc3cc(=O)[nH]c(=O)[nH]3)nnc2SCc2cccc(F)c2)cc1	0.82	-2.8
COc1cc(C(=O)N2CCCC(c3ccccc3)C2)cc(OC)c1OC (configuration not stated)	0.99	-0.16
O=S(=O)(Nc1cccc(F)c1)c1cccnc1	1.2	1.6
Cc1ccc(-c2cc(C(F)(F)F)n3ncc(C(=O)NCCCN4CCOCC4)c3n2)cc1	1.4	4
Cc1cccc(C(=O)Nc2c(-c3ccccc3)nc3cc(C)ccn23)c1	0.97	-0.044
COc1cc(OC)c(-n2cc(-c3ccc4c(c3)OCO4)[nH]c2=O)cc1Cl	1	0.8
CCOC(=O)CNc1ccccc1-c1nc2ccccc2[nH]c1=O	1	0.64
COc1ccc(CNC(=O)c2cc(-c3ccc(OC)c(OC)c3)on2)cc1	1	0.16
COc1cccc(NC(=O)CSc2nnc(CNC(=O)COc3ccc(Cl)cc3)o2)c1	1	-0.1
CCOC(=O)c1cnc2c(C)cc(Cl)cc2c1NCCN1CCOCC1	1	0.56
COc1ccc(-c2ncnn2-c2cccc(Cl)c2C)cc1OC	1	0.3

Shown as labelled records: entries from further up.
Cc1ccc(-c2noc(CN(C(=O)COc3ccccc3)C(C)C)n2)cc1
  CBX7 AlphaScr: 0.95
  CBX7 AlphaScr z-score: -0.46
CCOC(=O)c1cc(-c2ccccc2)n(CCC(=O)N(C)C2CCCCC2)c1C
  CBX7 AlphaScr: 0.82
  CBX7 AlphaScr z-score: -5.4
CC(NC(=O)C(=O)NCc1cccnc1)C(c1cccs1)N1CCN(c2ccccc2F)CC1 (configuration not stated)
  CBX7 AlphaScr: 0.93
  CBX7 AlphaScr z-score: -0.7
COc1cccc(C2C(N3C(=O)c4ccccc4C3=O)C(=O)N2c2ccc(Cl)cc2C)c1 (configuration not stated)
  CBX7 AlphaScr: 0.9
  CBX7 AlphaScr z-score: -2.2

Further entries follow.
Structure	CBX7 AlphaScr	CBX7 AlphaScr z-score
CC1(C)CC2CC(C)(CN2c2nc(-c3ccc(Cl)cc3)cs2)C1 (configuration not stated)	0.9	-1.8
Cc1ccc(-c2ccc(=O)n(CC(=O)NC3CCCCC3)n2)cc1	0.98	-0.53
O=C(Nc1ccccc1Cl)c1nc2c(nnn2Cc2ccc3c(c2)OCO3)c(=O)[nH]1	0.95	-1
CCOc1ccc(NC(=O)CCc2c(C)nc3cc(-c4cccc(F)c4)nn3c2C)cc1	0.98	-0.52
Cc1ccc2oc(Nc3nc(-c4ccccc4)cc(=O)[nH]3)nc2c1	0.95	-0.64
CCC(=O)N1CCC(=O)Nc2ccccc21	0.94	-1
COc1ccc(CCNC(=O)C2CCN(S(=O)(=O)c3cccc4nonc34)CC2)cc1OC	1	-0.0038
CC(=O)c1ccc(NC(=O)Cn2c(-c3cncs3)nc3ccccc32)cc1	0.99	-0.044
Cc1ccc(-c2nc(C(=O)Nc3nccs3)c(C)o2)cc1	0.94	-0.63

These rows are one share of the data; count on the stated rates, not on these rows.
